High-throughput results (PubChem BioAssay)
MARV entry inh – qHTS for inhibitors of binding or entry into cells for Marburg Virus; actives 1.8% (n = 300,000); Potency, µM (series often up to 37.8 µM), inactives show top-dose activity change, negative = inhibition, most hits filed as inhibitors; AID 540276, 2011; Marburg virus pseudotyped entry inhibition, cell reporter; control for the full effect not named in the record; about a third of the inactives were read at about 46 µM; active = well fitted inhibition curve with a large enough effect; inconclusive = small, poorly fitted or top-dose-only effect, or effect the other way; inactive = flat fitted curve, though single readings scatter; tested in HEK293 cells; about a fifth of its hits are not listed in these tables; also: % is scaled to controls: 0 for no effect and ±100 for the full control effect; luciferase read-out
RE007 growth inh – qHTS Assay for Inhibitors of the HIV-1 protein Vpr; actives 0.21% (n = 360,000); S. pombe RE007 Vpr strain, BacTiter-Glo ATP luminescence, 24 h; control for the full effect not named in the record; AID 651644, 2012; Potency, µM (series often up to 92.2 µM), without a hit: at the highest dose activity change, negative = less growth; active = well fitted falling curve with a large enough effect; inconclusive = small, poorly fitted or top-dose-only effect; inactive = no such curve, though single readings can be large or run the other way;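 also: % is scaled to controls: 0 for no effect and ±100 for the full control effect; nearly all actives have a fitted effect of over 50% in size; the assay follows cell death caused by Vpr and the record does not say whether a fall means rescue or toxicity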
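Fission yeast strain RE007, carrying one chromosomally integrated HIV-1 vpr copy, was seeded at OD 0.01 in PMG+AL medium with 23 nL pinned compound. After 24 h at 30 °C and 99% humidity, viability was read by BacTiter-Glo luminescence.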
SARS PLP yeast – qHTS of Yeast-based Assay for SARS-CoV PLP | S. cerevisiae expressing SARS-CoV PLpro, growth rescue; control for the full effect not named in the record | Potency, µM (top dose mostly 32.9 µM), without a hit: top-dose activity, positive = growth rescue | actives 0.19% (n = 330,000); active means well fitted rising curve with a large enough effect; inconclusive means small, poorly fitted or top-dose-only effect; inactive means no such curve, though single readings can be large or run the other way; also: 0% is about no effect; nearly all actives have a fitted effect of over 55% in size; growth read by luminescence after 48 h
NS1 inh – qHTS Assay for Inhibitors of Influenza NS1 Protein Function. S. cerevisiae slowed by influenza A NS1, growth recovery by OD600. Potency, µM (doses to about 46.1 µM), without a hit: at the highest dose activity, positive = more growth. actives 0.4% (n = 270,000); active means well fitted rising curve with a large enough effect; inconclusive means small, poorly fitted or top-dose-only effect; inactive means no such curve, though single readings can be large or run the other way; also: nearly all actives have a fitted effect of over 50% in size
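Read-out: OD600 growth recovery of NS1-expressing budding yeast. Cells grown overnight at 30C in -URA glucose medium, washed, resuspended and diluted 1:100 in 2% galactose assay medium, pH 6.0. Same strain lacking NS1 served as positive control.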
StopGo reporter – High Throughput Screening for Foot and Mouth Disease Virus Antivirals; human cells with a luciferase reporter of 2A StopGo recoding; control for the full effect not named in the record; Potency, µM (series often up to 57.9 µM), for inactives: at the top dose signal change, negative = less light; actives 1.2% (n = 410,000); AID 1159524, 2015; active = well fitted falling curve with a large enough effect; inconclusive = small, poorly fitted or top-dose-only effect; inactive = no such curve, though single readings can be large or run the other way; tested in HEK293T cells; also: % is scaled to controls: 0 for no effect and ±100 for the full control effect; nearly all actives have a fitted effect of over 45% in size; luciferase light after 4 h
Cruzain inh noDet – qHTS Assay for Promiscuous and Specific Inhibitors of Cruzain (without detergent). actives 2.3% (n = 200,000). Cruzipain (Trypanosoma cruzi), P25779. AID 1476, 2009. purified cruzain, Z-FR-AMC fluorescence, no detergent. Potency, µM, without a hit: max response, negative = inhibition, hits mostly inhibitors;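 also: plate controls were enzyme without inhibitor for no effect and buffer without enzyme for full effect; nearly all actives have a fitted effect of over 40% in size; top concentration of the series not given in the record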
Target sequence (P25779 123-467 limits assumed): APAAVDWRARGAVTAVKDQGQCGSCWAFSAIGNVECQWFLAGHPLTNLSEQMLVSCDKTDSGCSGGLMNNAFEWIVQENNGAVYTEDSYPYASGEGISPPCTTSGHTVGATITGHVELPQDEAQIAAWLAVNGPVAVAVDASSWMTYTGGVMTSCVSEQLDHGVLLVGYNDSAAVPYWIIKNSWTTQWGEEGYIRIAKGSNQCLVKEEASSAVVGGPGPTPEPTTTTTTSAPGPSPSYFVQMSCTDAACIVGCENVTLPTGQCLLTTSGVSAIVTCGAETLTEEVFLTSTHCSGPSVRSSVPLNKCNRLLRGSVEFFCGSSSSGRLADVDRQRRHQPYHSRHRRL
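Purified cruzain at 1.5 nM, pre-incubated 15 min with compound at room temperature in 100 mM sodium acetate pH 5.5, 5 mM DTT, 0.00005% Triton X-100. Reaction started with 2 uM Z-FR-AMC; AMC fluorescence increase over 60 s gives rate.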
Lassa entry inh – qHTS for Inhibitors of binding or entry into cells for Lassa Virus; Potency, µM (highest dose often 37.9 µM), for inactives: top-dose activity change, negative = inhibition, actives largely listed as inhibitors; Lassa virus pseudotype entry inhibition, cell reporter; control for the full effect not named in the record; AID 540256, 2011; actives 1.2% (n = 300,000); active means well fitted inhibition curve with a large enough effect; inconclusive means small, poorly fitted or top-dose-only effect, or effect the other way; inactive means flat fitted curve, though single readings scatter; tested in HEK293 cells; also: % is scaled to controls: 0 for no effect and ±100 for the full control effect; nearly all actives have a fitted effect of over 50% in size; luciferase read-out
Cruzain inh Det – qHTS Assay for Promiscuous and Specific Inhibitors of Cruzain (with detergent). Cruzipain (Trypanosoma cruzi), P25779. Potency, µM, inactives show max response, negative = inhibition, most hits filed as inhibitors. AID 1478, 2009. purified cruzain, Z-FR-AMC fluorescence, 0.01% Triton. actives 0.43% (n = 200,000);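 also: plate controls were neutral wells for no effect and buffer without enzyme for full effect; nearly all actives have a fitted effect of over 40% in size; top concentration of the series not given in the record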
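Enzyme 1.5 nM, Z-FR-AMC 2 uM, NaOAc 100 mM pH 5.5, DTT 5 mM, Triton X-100 0.01%; 15 min RT compound preincubation; kinetic ex360/em450, 60 s delta.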
* = called active by the depositor; ? = inconclusive; · = not tested or not shown; [ ] = dose if it differs, or a comment. Unless noted, calls follow the shape of the dose curve; as a rule, active = well fitted curve in the direction sought with a large enough effect; inconclusive = small, poorly fitted or top-dose-only effect, or another doubt; inactive = no such curve, though single readings can be large; an effect the other way counts as inactive or inconclusive. Potency is read from the fitted curve at half-maximal effect.

SMILES | MARV entry inh | RE007 growth inh | SARS PLP yeast | NS1 inh | StopGo reporter | Cruzain inh noDet | Lassa entry inh | Cruzain inh Det
COCc1cc(C)n(CC(=O)N/N=C/c2ccc(-c3ccc(Cl)c(C(=O)O)c3)o2)c(=O)c1C#N | 1% | -11% | 18% | ? | -8% | -2% | 3% | -17%
CCCNC(=S)NC1CC2CCCC(C1)N2Cc1ccc(F)cc1 (stereo unspecified) | · | -2% | 3% | 29% | 3% | · | · | ·
C=CCS/C(=N\n1cnc2ccccc2c1=O)N(CC)CC | -7% | 8% | 0% | -1% | 2% | 12% | 7% | -13%
COc1ccc(CN(C)S(=O)(=O)c2nnc(NC(=O)c3ccccc3Br)s2)cc1 | 15%[46.1 µM] | 0% | 1% | 5% | 6% | · | -2%[46.1 µM] | ·
Cc1cccc(C)c1NC(=O)Cn1c(=O)n(Cc2ccc3c(c2)OCO3)c(=O)c2oc3ccccc3c21 | · | · | · | · | -10% | 16% | 17%[46.1 µM] | 1.0%
CC1=NN(c2ccccc2)C(=O)/C1=C/c1c(O)n(-c2ccc(F)cc2)[nH]c1=O | 1% | -7% | -14% | -23% | -14% | -1% | 18% | -15%
CC1CCc2nc(NC(=O)Nc3ccc4c(c3)OCO4)sc2C1 (stereo unspecified) | ? | 2% | -55% | 4% | 26% | ? | ? | -18%
CCc1nnc(NC(=O)C2CC(=O)N(CCc3ccc(F)cc3)C2)s1 (stereo unspecified) | -1%[46.1 µM] | 8% | 0% | 7% | 2% | · | -2%[46.1 µM] | ·
Cc1ccc(C)c(CN2C(=O)COc3ccc(C(=O)c4ccccc4C(=O)O)cc32)c1 | ? | -4% | 1% | · | -5% | · | -24%[46.1 µM] | ·
CCOc1ccc(N2C(=O)CC(Sc3n[nH]c(-c4ccccc4)n3)C2=O)cc1 (stereo unspecified) | · | ? | -6% | -61% | 8% | · | · | ·
C=CCOc1nc(-c2ccncc2)nc2ccccc12 | ? | -6% | -9% | -195% | -19% | -7% | -4% | -6.2%
O=C(COc1ccccc1)N1CCN=C1SCc1ccccc1F | -17%[46.1 µM] | -10% | 0% | -8% | -16% | · | ? | ·
O=C(c1ccc2c(c1)N(Cc1ccc(F)cc1)CCS2)N1CCC2(CC1)OCCO2 | 0%[46.1 µM] | 12% | -4% | 5% | 24% | · | ? | ·
O=C(Nc1cccnc1)Nc1ccc(F)c(Cl)c1 | 0% | 1% | -7% | · | 35%[activator] | -5% | 17% | -6.1%
O=C(Nc1ccc(F)cc1F)N1CCCCCC1 | · | 3% | 9% | -7% | 21% | · | · | ·
COc1ccc(-c2ccc(-c3nnc(-c4ccncc4)o3)cc2)cc1 | 4% | · | -1% | -60% | · | -3% | · | 1.4%
Cc1nc(C)c(/C(O)=C\c2nc3ccc([N+](=O)[O-])cc3oc2=O)o1 | 6% | 0% | 0% | 7% | -12% | · | -1% | ·
CC(=O)NC(CC(=O)OCC(=O)c1c(N)n(CC(C)C)c(=O)n(C)c1=O)c1ccccc1 (stereo unspecified) | -21% | -8% | 3% | · | ? | · | -7% | ·
O=C(CCC(=O)c1ccc(Cl)cc1)OCn1nnc2ccccc2c1=O | -2% | ? | 7% | · | 3% | · | 5% | ·
O=S(=O)(NCc1ccco1)N1CCCCCC1 | 3% | 9% | -4% | ? | 34%[activator] | 9% | 9% | 6.4%
CN1C(=O)C2(OCC(COc3ccc(Cl)cc3)O2)c2ccccc21 (stereo unspecified) | ? | 4% | -20% | -2% | · | 2% | -23% | -6.6%
O=C1COc2ccc(C(=O)COC(=O)CNC(=O)C3CCCCC3)cc2N1 | ? | 13% | -2% | 8% | 2% | · | 29% | ·
O=C(CN1C(=O)CSc2ccc(S(=O)(=O)N3CCOCC3)cc21)NCc1cccnc1 | 10%[46.1 µM] | 7% | 0% | · | -13% | · | 5%[46.1 µM] | ·
CN1CCC(=NNC(=O)CN(c2ccccc2)S(=O)(=O)c2ccccc2)CC1 | 0% | 2% | -1% | ? | -8% | · | 12% | ·
CCCC(=O)Nc1ccc(Cc2ccc(NC(=O)CCC)c(C(=O)O)c2)cc1C(=O)O | -2%[46.1 µM] | -2% | 1% | 4% | 2% | · | ? | ·
COc1ccc(S(=O)(=O)Nc2ccc(N3CCOCC3)cc2)cc1Br | -9% | -1% | 2% | -5% | ? | -3% | -17% | -5.6%
Cc1[nH]c2ccccc2c1C(c1ccccn1)N1CCCC1 (stereo unspecified) | -15%[46.1 µM] | -9% | -4% | · | -8% | · | -1% | ·
O=C(O)c1ccc[nH]c1=S | 8%[46.1 µM] | -4% | 0% | -5% | -12% | · | 19% | ·
CC1Cc2cc(S(=O)(=O)CCC(=O)Nc3ccc(OC(F)(F)F)cc3)ccc2N1C(=O)C1CC1 (stereo unspecified) | · | · | · | · | ? | ? | -5%[46.1 µM] | -9.8%
CCn1nc(C)cc1C(=O)NC1CC(C)(C)Cc2c1cnn2-c1cccc(F)c1 (stereo unspecified) | ? | -10% | 1% | -18% | -24% | · | -15% | ·
O=C(Nc1nncs1)c1cccc(S(=O)(=O)N2CCc3ccccc32)c1 | 15%[46.1 µM] | -12% | 0% | -2% | -24% | · | -30% | ·
Cc1cccc(N2CCN(CCNC(=O)c3cc4c(s3)CS(=O)(=O)C4)CC2)c1C | ? | -12% | -9% | 11% | · | -27% | -7% | -1.1%
O=C(COC(=O)c1ccco1)NC1CCCC1 | ? | 15% | 0% | 7% | 11% | · | 7% | ·
CCc1ccccc1NC(=O)CSc1nc2c(oc3ccccc32)c(=O)n1-c1ccccc1 | ? | · | · | · | -22% | -9% | · | -1.1%
O=C(O)c1cc2ccc3cccc4ccc(c1)c2c34 | · | -10% | -3% | -67% | 6% | · | · | ·
O=C(CCNS(=O)(=O)c1cccc2nsnc12)NCc1ccco1 | 17%[46.1 µM] | 15% | 2% | · | 15% | · | -11% | ·

Compound profiles, as listed above. Screens in order: MARV entry inh	RE007 growth inh	SARS PLP yeast	NS1 inh	StopGo reporter	Cruzain inh noDet	Lassa entry inh	Cruzain inh Det
O=C(O)c1ccc[nH]c1=S in the list: 8%[46.1 µM]	-4%	0%	-5%	-12%	·	19%	·
O=C(COC(=O)c1ccco1)NC1CCCC1 in the list: ?	15%	0%	7%	11%	·	7%	·
Cc1[nH]c2ccccc2c1C(c1ccccn1)N1CCCC1 (stereo unspecified) in the list: -15%[46.1 µM]	-9%	-4%	·	-8%	·	-1%	·
CCc1ccccc1NC(=O)CSc1nc2c(oc3ccccc32)c(=O)n1-c1ccccc1 in the list: ?	·	·	·	-22%	-9%	·	-1.1%

Continuation:
SMILES | MARV entry inh | RE007 growth inh | SARS PLP yeast | NS1 inh | StopGo reporter | Cruzain inh noDet | Lassa entry inh | Cruzain inh Det
Cc1ccc(N2CC(C(=O)Nc3cc(C(F)(F)F)ccc3N3CCCC3)CC2=O)cc1 (stereo unspecified) | ? | 1% | -1% | · | -8% | · | -7% | ·
Cc1ccc2[nH]c(=O)c(CN(C)C(=O)c3ccccn3)cc2c1 | ? | -5% | -1% | -3% | -3% | -6% | -15% | -2.4%
Cc1nn(C)c(Cl)c1C(=O)NCC(=O)O | 6%[46.1 µM] | -10% | 0% | · | 1% | · | 21% | ·
S=C(NC1CCCCC1)NC1CC2CCC(C1)N2Cc1ccccc1 (stereo unspecified) | · | -11% | 0% | 7% | -26% | · | -19% | ·
Cc1ccccc1OCC(=O)Nc1nnc(S(=O)(=O)N2CCCC2)s1 | · | 3% | 4% | 15% | ? | -9% | -2%[46.1 µM] | -1.6%
COc1ccc2c(c1)c(CCN)c(C)n2Cc1ccccc1 | ? | -10% | 0% | -1% | -10% | · | ? | ·
Cc1nn(-c2ccccc2)c2sc(C(=O)N3CCCCC3)cc12 | ? | -9% | · | -55% | 9% | 19% | ? | -18%
CS(=O)(=O)N1CCC(Oc2ccccc2C(=O)N2CCCCC2CO)CC1 (stereo unspecified) | · | 2% | -2% | 0% | -11% | · | · | ·
O=C(Nc1ccc(Cl)cc1Cl)c1cc(S(=O)(=O)N2CCc3ccccc32)ccc1F | · | · | · | · | -9% | 16% | 10%[46.1 µM] | 0.3%
CC(C)(C)c1csc(Sc2ccc([N+](=O)[O-])cn2)n1 | ? | 6% | 1% | -2% | -14% | · | ? | ·
COc1cc(NC(=O)CN2CCCCC2C)c(C)cc1[N+](=O)[O-] (stereo unspecified) | 4% | 8% | 14% | 11% | -16% | -7% | ? | 2.6%
O=C(CCCCCN1C(=O)c2ccccc2C1=O)Nc1ccc2c(c1)OCCO2 | 13% | -2% | -3% | -6% | 20% | -8% | ? | -3.7%
Cc1cc(NC(c2cccnc2)c2ccc3cccnc3c2O)no1 (stereo unspecified) | ? | 15% | 7.1µM* | -125% | ? | 3% | ? | 7.4%
CCOc1ccccc1-n1c(SCC(=O)Nc2ccc(CC)cc2)nc2n[nH]c(C)c2c1=N | ? | 1% | -11% | 10% | -29% | 6.3µM* | 10µM* | 0.9%
O=C(C1CCC(CNc2c(N3CCCCC3)c(=O)c2=O)CC1)N1CCCC1 (stereo unspecified) | · | -6% | 1% | -4% | -17% | · | · | ·
CCc1nc(OCC(=O)c2ccccc2)c(C#N)c2c1COC(C)(C)C2 | -4% | -15% | 15% | 3% | ? | -2% | -17% | -3.4%
O=C(Nc1ccccc1)N1CC2CC(C1)c1cccc(=O)n1C2 (stereo unspecified) | · | 14% | 0% | -3% | 8% | · | · | ·
